Assay outcomes: PubChem, Sanford-Burnham Center for Chemical Genomics
HNF4A DNA FP – change in binding of human HNF4 alpha to DNA; P41235; HNF4a-FITC DNA binding, fluorescence polarization, 1 h; activity change, % at 10 µM; 0.3% of 360,000 active; in the data active = activity change above about 30%, passing the limit was not always enough;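 note: controls were the assay level and a saturating level of protein; the project sought stronger binding though the title names inhibitors; some compounds called inactive have numbers as strong as hits; positive values seem to mean higher polarization but the record does not say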
Target sequence (P41235 whole entry, looked up): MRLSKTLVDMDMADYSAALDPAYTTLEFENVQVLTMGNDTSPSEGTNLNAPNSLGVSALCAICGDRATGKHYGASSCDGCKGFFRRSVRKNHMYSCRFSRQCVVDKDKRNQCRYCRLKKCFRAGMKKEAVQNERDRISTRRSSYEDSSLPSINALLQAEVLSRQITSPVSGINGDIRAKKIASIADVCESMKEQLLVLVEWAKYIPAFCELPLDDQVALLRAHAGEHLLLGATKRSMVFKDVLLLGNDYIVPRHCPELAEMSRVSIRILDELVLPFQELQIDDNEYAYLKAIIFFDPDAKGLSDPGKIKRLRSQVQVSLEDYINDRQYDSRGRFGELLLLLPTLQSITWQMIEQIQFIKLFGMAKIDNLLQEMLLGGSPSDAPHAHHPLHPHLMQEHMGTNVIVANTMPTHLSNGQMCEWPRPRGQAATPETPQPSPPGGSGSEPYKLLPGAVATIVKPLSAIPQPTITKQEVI
The depositor's hits bear a star.

Start of the data: the first 14 records, ahead of the listing:
smiles,HNF4A DNA FP
O=C(/C=C/[C@H]1O[C@@H](n2cnc3c(NC(=O)c4ccccc4)ncnc32)[C@H](O)[C@@H]1O)NCCCN1CCCC1=O,4.0
OCCN1CCN(c2ncnc3c2ncn3[C@H]2CN(Cc3cccnc3)C[C@@H](CO)O2)CC1,2.8
CCCCCc1c(-c2ccc(OC)cc2)ncn1CCc1ccccc1OC,3.3
CCCS(=O)(=O)NC(=O)C1(C)CCCN(C(=O)/C=C/c2ccccc2)C1 (stereo not given),0.6
OCc1ccc(-c2cncc3nccn23)cc1,-1.7
Cc1ccc(F)c(S(=O)(=O)NC(=O)C2(C)CCN2C(=O)C2(c3ccc(Cl)cc3)CCC2)c1 (stereo not given),0.6
C[C@H](CO)N1C[C@H](C)[C@@H](CN(C)C(=O)Nc2ccnc(N3CCOCC3)c2)OCc2cnnn2CCCC1=O,-1.0
Cc1ccccc1CN1C(=O)CSCC1(C)C(=O)NC(C)C (stereo not given),2.2
CC(C)c1ccc(CC(=O)N2CCC2(C)C(=O)NS(=O)(=O)c2cccc(OC(F)F)c2)cc1 (stereo not given),-4.3
CCNC(=O)C[C@@H]1CC[C@@H]2NC[C@@H](O)COC[C@H]2O1,4.2
CC1(C(=O)NS(=O)(=O)C2CC2)CCCN(C(=O)c2cccnc2Oc2ccccc2)C1 (stereo not given),-2.2
Nc1ncnc2c1ncn2[C@@H]1O[C@H](C(=O)N[C@H](CO)Cc2ccc(O)cc2)[C@@H](O)[C@H]1O,4.6
Cc1cn(CC(=O)NCc2nc3ccccc3[nH]2)c(=O)[nH]c1=O,3.1
CC(=O)Nc1cccc(-c2ccnc3c2CC(C)(C(=O)Nc2ccc(C(C)C)cc2)O3)c1 (stereo not given),4.3

The whole of this part, previewed entries included:
smiles,HNF4A DNA FP
O=C(/C=C/[C@H]1O[C@@H](n2cnc3c(NC(=O)c4ccccc4)ncnc32)[C@H](O)[C@@H]1O)NCCCN1CCCC1=O,4.0
OCCN1CCN(c2ncnc3c2ncn3[C@H]2CN(Cc3cccnc3)C[C@@H](CO)O2)CC1,2.8
CCCCCc1c(-c2ccc(OC)cc2)ncn1CCc1ccccc1OC,3.3
CCCS(=O)(=O)NC(=O)C1(C)CCCN(C(=O)/C=C/c2ccccc2)C1 (stereo not given),0.6
OCc1ccc(-c2cncc3nccn23)cc1,-1.7
Cc1ccc(F)c(S(=O)(=O)NC(=O)C2(C)CCN2C(=O)C2(c3ccc(Cl)cc3)CCC2)c1 (stereo not given),0.6
C[C@H](CO)N1C[C@H](C)[C@@H](CN(C)C(=O)Nc2ccnc(N3CCOCC3)c2)OCc2cnnn2CCCC1=O,-1.0
Cc1ccccc1CN1C(=O)CSCC1(C)C(=O)NC(C)C (stereo not given),2.2
CC(C)c1ccc(CC(=O)N2CCC2(C)C(=O)NS(=O)(=O)c2cccc(OC(F)F)c2)cc1 (stereo not given),-4.3
CCNC(=O)C[C@@H]1CC[C@@H]2NC[C@@H](O)COC[C@H]2O1,4.2
CC1(C(=O)NS(=O)(=O)C2CC2)CCCN(C(=O)c2cccnc2Oc2ccccc2)C1 (stereo not given),-2.2
Nc1ncnc2c1ncn2[C@@H]1O[C@H](C(=O)N[C@H](CO)Cc2ccc(O)cc2)[C@@H](O)[C@H]1O,4.6
Cc1cn(CC(=O)NCc2nc3ccccc3[nH]2)c(=O)[nH]c1=O,3.1
CC(=O)Nc1cccc(-c2ccnc3c2CC(C)(C(=O)Nc2ccc(C(C)C)cc2)O3)c1 (stereo not given),4.3
C[C@@H]1CN([C@H](C)CO)C(=O)CCCn2cc(nn2)CO[C@H]1CN(C)C(=O)c1ccc2ccn(C)c2c1,1.7
O=C(Nc1cccc(C(F)(F)F)c1)C1Cc2c(-c3cccc(F)c3)ccnc2O1 (stereo not given),-5.3
c1ccc(SC23CCCCN(CCC2)[C@]32CO2)cc1 (stereo not given in full),8.6
CC(C)c1ccc(NC(=O)CN(C)C2=NS(=O)(=O)c3ccccc32)cc1,-5.3
CN(C)CCN1CCN(C(c2cc3ccccc3o2)c2nnnn2C(C)(C)C)CC1 (stereo not given),-4.0
C(=C\c1ccc2nncn2c1)/c1ccccc1,16.1
C[C@@H]1CN([C@H](C)CO)C(=O)CCCn2nncc2CO[C@@H]1CN(C)S(=O)(=O)c1ccc(Oc2ccccc2)cc1,-6.8
CCCCCCCCN1C(=O)[C@H](CC(=O)NCC2CCCCC2)C[C@@]2(C(=O)OCC)CCCC=C12,-0.3
CCCCn1nnnc1C(c1cc2ccccc2o1)N(Cc1ccccc1)Cc1ccccc1 (stereo not given),-2.6
CC(=O)Nc1cncc(-c2cccc(S(C)(=O)=O)c2)n1,3.0
CC1(C(=O)O)CCCN(C(=O)c2ccc3c(c2)C(C)(C)CCC3(C)C)C1 (stereo not given),-3.1
CCOC(=O)C(=O)N(C)c1c(CC)nc2c(OCc3ccccc3)cccn12,-0.3
Cc1ccc(-c2nc3ccc(Cl)cn3c2Cc2cccc(F)c2)cc1,5.7
C[C@H](CO)N1C[C@H](C)[C@H](CN(C)Cc2ccncc2)Oc2ncc(Br)cc2C1=O,1.5
COC(=O)Cc1ccc(OC2(C)CCN(Cc3ccccc3)C2)cc1 (stereo not given),-1.7
COc1cccc(-c2cccc(-c3nc(C(=O)NCCCN4CCOCC4)cc4c3[C@H](CCO)N(S(=O)C(C)(C)C)C4)c2)c1 (stereo not given in full),-1.3
COC(=O)CCCC[C@@H]1O[C@H](CCc2ccccc2)Cc2[nH]c(=S)[nH]c(=O)c21,5.4
CCCCNC(=O)C1(C)CCN1C(=O)c1cccnc1Oc1ccccc1 (stereo not given),1.4
CC(=O)c1cccc(-c2ccnc3c2CC(C(=O)NC(C)C)O3)c1 (stereo not given),-9.8
CC(N)c1csc(NC(=O)c2cc(C(C)(C)C)nn2Cc2ccccc2)n1 (stereo not given),3.0
CCCS(=O)(=O)NC(=O)C1(C)CCCN(C(=O)c2ccccc2)C1 (stereo not given),-2.6
COC(=O)[C@@]1(Sc2ccc(C)cc2)CC(=O)N[C@@H]1c1ccc(C(F)(F)F)cc1,-4.1
O=S1(=O)N[C@@H](Cc2ccccc2)COc2cccc(N3CCN(Cc4ccccc4F)CC3)c21,-2.6
COC(=O)c1ccc2nc(-c3ccc(C)cc3)c(Cc3cccc(F)c3)n2c1,5.3
COC(=O)c1cc(N/C(N)=N/c2nc(C)cc(C)n2)cc(C(=O)OC)c1,2.2
O=C(NC1CCCCC1)C(c1cc2ccccc2o1)N1CCOCC1 (stereo not given),-1.6
COC(=O)/C=C1\OCc2c(F)cccc21,1.1
CC(C)(C)c1ccc(CC(=O)N2CCC2(C)C(=O)NCc2ccc(Cl)cc2)cc1 (stereo not given),-4.4
CS(=O)(=O)Nc1cccc(NC(=O)c2cccc3c(-c4ccc(F)c(F)c4)coc23)c1,-3.6
NC(=O)c1cccc(-c2ccnc3c2CC(C(=O)NCC2CC2)O3)c1 (stereo not given),0.7
CC(C)(C)OC(=O)N1C(=O)[C@](OC(=O)c2ccccc2)(c2ccc(F)cc2)c2ccccc21,2.2
c1coc(-c2ccc3nncn3c2)c1,-38.7
CCCCn1nnnc1C(c1cc2ccccc2o1)N1CCN(CCN(C)C)CC1 (stereo not given),3.9
CCCS(=O)(=O)NC(=O)C1(C)CCCN(C(=O)c2c(OC)cccc2OC)C1 (stereo not given),0.9

(cont.)
| smiles | HNF4A DNA FP |
| --- | --- |
| COc1ccc(C(C(=O)Nc2c(C)cccc2C)N2CCN(C)CC2)cc1 (stereo not given) | 0.7 |
| CCN(CC)CCC12CC(C)OC1=Nc1ccccc1NC2=O (stereo not given) | -3.3 |
| COc1ccc(OC)c(S(=O)(=O)NC(=O)C2(C)CCN2C(=O)Cc2ccccc2)c1 (stereo not given) | -0.5 |
| COc1cc(OC)cc(C2=Cc3ccc(OC)cc3C(CC(C)=O)N2c2ccc(C#CCCO)cc2)c1 (stereo not given) | -0.2 |
| COc1cccc(C2CC(OCCF)=CC(=O)O2)c1 (stereo not given) | 1.6 |
| Cc1ccc(S(=O)(=O)n2cccc2/C=C/[N+](=O)[O-])cc1 | 1.2 |
| CCCCCNC(=O)C(c1ccc(-c2ccccc2)cc1)n1c(=O)c(-c2cc3ccccc3[nH]2)nc2ccccc21 (stereo not given) | 9.5 |
| Cc1cnc(C(=O)N(c2ccc(N3CCOCC3)cc2)C2C(=O)Nc3ccccc3N=C2c2ccc3c(c2)OCO3)cn1 (stereo not given) | -1.1 |
| O=S1(=O)CC(N2CC=CC2)CN1C1CCCCC1 (stereo not given) | -1.2 |
| CCOC(=O)[C@]12CCC=C1N(Cc1ccc3c(c1)OCO3)C(=O)[C@H](CC(=O)NCc1ccc(OC)c(OC)c1)C2 | 2.1 |
| CN(C)CCNc1ncnc2c1ncn2[C@H]1CN(Cc2ccncc2)C[C@@H](CO)O1 | -7.0 |
| CC1=C(C(=O)N2CCCCCC2)CC(CC(=O)NCCc2ccccn2)C(=O)N1Cc1ccc(F)cc1 (stereo not given) | 5.4 |
| O=C(Nc1cccc(Oc2ccccc2)c1)C1Cc2c(-c3ccco3)ccnc2O1 (stereo not given) | 2.5 |
| O=C(NCc1ccccc1)c1cc(C2CCCN(S(=O)(=O)c3cccc4cccnc34)C2)on1 (stereo not given) | -0.5 |
| COCC#Cc1ccc2c(c1)O[C@@H](CN(C)S(=O)(=O)c1cccc(F)c1)[C@@H](C)CN([C@H](C)CO)S2(=O)=O | 6.8 |
| COc1ccc(-c2cc(NC=O)c3ncc(-c4cccc(C(F)(F)F)c4)n3c2)cc1OC | 8.7 |
| COC(=O)N(C)C[C@@H]1OCc2cn(nn2)CCCC(=O)N([C@H](C)CO)C[C@H]1C | 2.8 |
| CCN(CC)c1ncnc2c1ncn2[C@H]1CN(Cc2ccc(OC)cc2)C[C@@H](CO)O1 | -7.2 |
| O=S1(=O)CC(N2CCSCC2)CN1Cc1cn(Cc2cccc(C(F)(F)F)c2)nn1 (stereo not given) | 1.0 |
| COc1cccc(-c2cnc(C(O)c3cccc(F)c3)[nH]2)c1 (stereo not given) | 1.9 |
| CC(C)CNc1ncnc2c1ncn2[C@H]1CN(Cc2ccncc2)C[C@@H](CO)O1 | 0.5 |
| CC(C)(C)OC(=O)NCCc1onc(-c2ccccc2F)c1C(=O)O | 0.9 |
| CCCNC(=O)C1(C)CCN1C(=O)c1ccccc1CCc1ccccc1 (stereo not given) | 3.6 |
| Cc1cccc(COC[C@H](CC(C)C)N2CCN(C(=O)c3ccc(C(C)(C)C)cc3)CCC2=O)c1 | -2.7 |
| N#Cc1ccc(-c2ccc3nccn3c2)cc1 | -2.7 |
| CC(NC(=O)C1CCN(Cc2ccc(Oc3ccccc3)cc2)CC1)c1cccc2ccccc12 (stereo not given) | -1.6 |
| CC1(C(=O)NCc2ccccc2)CN(S(C)(=O)=O)CC(=O)N1C1CC1 (stereo not given) | -1.6 |
| COc1cccc(CN2CCC2(C)C(=O)Nc2cnc3ccccc3c2)c1F (stereo not given) | 2.8 |
| CC1(C(=O)NS(=O)(=O)c2ccccc2Cl)CCN1C(=O)Cc1ccccc1Cl (stereo not given) | 3.9 |
| CC1(C(=O)NS(=O)(=O)c2cccs2)CCN1C(=O)C1CC1 (stereo not given) | -7.4 |
| CCCCCCCCN1C(=O)[C@H](CC(=O)NCCCOC)C[C@@]2(C(=O)OC)CC(C)(C)CC=C12 | 0.5 |
| OC[C@@H](O)C(O)[C@@H](O)CO (stereo not given in full) | 0.5 |
| O=C(NCc1ccccc1)C1C(c2ccccc2)=Nc2ccccc2N1C(=O)c1cnccn1 (stereo not given) | 5.1 |
| Cn1cc([C@]2(O)C(=O)Nc3ccc(Br)cc32)c2ccccc21 | 5.0 |
| COCCN1C[C@@H](CO)O[C@@H](n2cnc3c(N4CCOCC4)ncnc32)C1 | -2.4 |
| NC(=O)c1ccc(NS(=O)(=O)c2ccc(S(=O)(=O)N3CCCC3)cc2)cc1 | 1.8 |
| O=C(Nc1cccc(C(F)(F)F)c1)c1csc([C@@H]2O[C@H](CO)[C@H](O)[C@H](O)[C@H]2O)n1 | 0.8 |
| COc1ccc(-c2oc3c(c2C(=O)OCCO)C(OCCCO)CCC3)cc1 (stereo not given) | -1.8 |
| CCCCCc1c(-c2cccc(F)c2)ncn1CCc1ccccc1OC | 1.4 |
| COc1ccc([C@H]2CC(=O)C[C@@H](CCn3nnc4ccccc43)O2)cc1 | 1.5 |
| CCOc1ccc(NC(=O)c2cccc(S(=O)(=O)NCc3cccnc3)c2)cc1 | 2.3 |
| Cc1cccc(-c2cnc(C(O)c3ccc(F)c(C)c3)[nH]2)c1 (stereo not given) | 2.2 |
| CC1(C(=O)NS(=O)(=O)c2cccc(OC(F)F)c2)CCN1C(=O)C1CC1 (stereo not given) | -0.7 |
| COCCNC(=O)C1(C)CCN(Cc2ccccc2C#N)C1 (stereo not given) | -1.4 |
| CCCNC(=O)C1(C)CCN(C(=O)c2ccccc2OC)C1 (stereo not given) | 1.2 |
| CC(=O)Nc1ccc(NC(=O)COc2cccc3ccccc23)cc1 | 0.7 |
| CCCNC(=O)c1cc2c(c(-c3cccc(-c4ccccc4F)c3)n1)[C@H](CCO)N(C(=O)CC1CC1)C2 | -1.3 |
| CCNC(=O)C1(C)CCCN1Cc1c(F)cccc1F (stereo not given) | 1.1 |
| CC1(C(=O)Nc2ccc3c(c2)OCCO3)CSCC(=O)N1CCOc1ccccc1 (stereo not given) | 4.5 |
| COc1cc(CNC(=O)c2cc(-c3cc(F)ccc3OCC3CCCO3)n[nH]2)cc(OC)c1 (stereo not given) | 0.0 |
| COC(=O)Cc1ccc(OC2(C)CCN(Cc3ccc(-c4ccccn4)cc3)C2)cc1 (stereo not given) | -4.1 |
| CCNC(=O)C1CCCN(C(=O)c2ccco2)CC1 (stereo not given) | 0.4 |
| Cc1ccc(Cc2c(C3CCCCC3)nc3c4ccccc4ccn23)cc1 | 11.4 |
| CCCCNC(=O)C1c2ccccc2OCC(=O)N1CCCN1CCOCC1 (stereo not given) | -1.2 |
| CCOC(=O)C1=CC[C@@H](c2ccccc2)N(S(=O)(=O)c2ccc(C)cc2)[C@H]1c1ccc(CC)cc1 | -3.4 |

This is a subset; rates above refer to the full screens.
